nsP2pro inh: blocks chikungunya virus nsP2 protease peptide cleavage. Q8JUX6. FRET peptide cleavage, nsP2pro, fluorescence 1 h. Potency, µM (highest dose often 24.9 µM), without a hit: top-dose activity change, negative = inhibition, actives largely listed as inhibitors. actives 1.1% (n = 31,000); active means well fitted inhibition curve with a large enough effect; inconclusive means small, poorly fitted or top-dose-only effect; inactive means no such curve, though single readings can be large or run the other way; further: nearly all actives have a fitted effect of over 60% in size; a reference inhibitor and vehicle were the controls
Target sequence (Q8JUX6 whole entry, looked up): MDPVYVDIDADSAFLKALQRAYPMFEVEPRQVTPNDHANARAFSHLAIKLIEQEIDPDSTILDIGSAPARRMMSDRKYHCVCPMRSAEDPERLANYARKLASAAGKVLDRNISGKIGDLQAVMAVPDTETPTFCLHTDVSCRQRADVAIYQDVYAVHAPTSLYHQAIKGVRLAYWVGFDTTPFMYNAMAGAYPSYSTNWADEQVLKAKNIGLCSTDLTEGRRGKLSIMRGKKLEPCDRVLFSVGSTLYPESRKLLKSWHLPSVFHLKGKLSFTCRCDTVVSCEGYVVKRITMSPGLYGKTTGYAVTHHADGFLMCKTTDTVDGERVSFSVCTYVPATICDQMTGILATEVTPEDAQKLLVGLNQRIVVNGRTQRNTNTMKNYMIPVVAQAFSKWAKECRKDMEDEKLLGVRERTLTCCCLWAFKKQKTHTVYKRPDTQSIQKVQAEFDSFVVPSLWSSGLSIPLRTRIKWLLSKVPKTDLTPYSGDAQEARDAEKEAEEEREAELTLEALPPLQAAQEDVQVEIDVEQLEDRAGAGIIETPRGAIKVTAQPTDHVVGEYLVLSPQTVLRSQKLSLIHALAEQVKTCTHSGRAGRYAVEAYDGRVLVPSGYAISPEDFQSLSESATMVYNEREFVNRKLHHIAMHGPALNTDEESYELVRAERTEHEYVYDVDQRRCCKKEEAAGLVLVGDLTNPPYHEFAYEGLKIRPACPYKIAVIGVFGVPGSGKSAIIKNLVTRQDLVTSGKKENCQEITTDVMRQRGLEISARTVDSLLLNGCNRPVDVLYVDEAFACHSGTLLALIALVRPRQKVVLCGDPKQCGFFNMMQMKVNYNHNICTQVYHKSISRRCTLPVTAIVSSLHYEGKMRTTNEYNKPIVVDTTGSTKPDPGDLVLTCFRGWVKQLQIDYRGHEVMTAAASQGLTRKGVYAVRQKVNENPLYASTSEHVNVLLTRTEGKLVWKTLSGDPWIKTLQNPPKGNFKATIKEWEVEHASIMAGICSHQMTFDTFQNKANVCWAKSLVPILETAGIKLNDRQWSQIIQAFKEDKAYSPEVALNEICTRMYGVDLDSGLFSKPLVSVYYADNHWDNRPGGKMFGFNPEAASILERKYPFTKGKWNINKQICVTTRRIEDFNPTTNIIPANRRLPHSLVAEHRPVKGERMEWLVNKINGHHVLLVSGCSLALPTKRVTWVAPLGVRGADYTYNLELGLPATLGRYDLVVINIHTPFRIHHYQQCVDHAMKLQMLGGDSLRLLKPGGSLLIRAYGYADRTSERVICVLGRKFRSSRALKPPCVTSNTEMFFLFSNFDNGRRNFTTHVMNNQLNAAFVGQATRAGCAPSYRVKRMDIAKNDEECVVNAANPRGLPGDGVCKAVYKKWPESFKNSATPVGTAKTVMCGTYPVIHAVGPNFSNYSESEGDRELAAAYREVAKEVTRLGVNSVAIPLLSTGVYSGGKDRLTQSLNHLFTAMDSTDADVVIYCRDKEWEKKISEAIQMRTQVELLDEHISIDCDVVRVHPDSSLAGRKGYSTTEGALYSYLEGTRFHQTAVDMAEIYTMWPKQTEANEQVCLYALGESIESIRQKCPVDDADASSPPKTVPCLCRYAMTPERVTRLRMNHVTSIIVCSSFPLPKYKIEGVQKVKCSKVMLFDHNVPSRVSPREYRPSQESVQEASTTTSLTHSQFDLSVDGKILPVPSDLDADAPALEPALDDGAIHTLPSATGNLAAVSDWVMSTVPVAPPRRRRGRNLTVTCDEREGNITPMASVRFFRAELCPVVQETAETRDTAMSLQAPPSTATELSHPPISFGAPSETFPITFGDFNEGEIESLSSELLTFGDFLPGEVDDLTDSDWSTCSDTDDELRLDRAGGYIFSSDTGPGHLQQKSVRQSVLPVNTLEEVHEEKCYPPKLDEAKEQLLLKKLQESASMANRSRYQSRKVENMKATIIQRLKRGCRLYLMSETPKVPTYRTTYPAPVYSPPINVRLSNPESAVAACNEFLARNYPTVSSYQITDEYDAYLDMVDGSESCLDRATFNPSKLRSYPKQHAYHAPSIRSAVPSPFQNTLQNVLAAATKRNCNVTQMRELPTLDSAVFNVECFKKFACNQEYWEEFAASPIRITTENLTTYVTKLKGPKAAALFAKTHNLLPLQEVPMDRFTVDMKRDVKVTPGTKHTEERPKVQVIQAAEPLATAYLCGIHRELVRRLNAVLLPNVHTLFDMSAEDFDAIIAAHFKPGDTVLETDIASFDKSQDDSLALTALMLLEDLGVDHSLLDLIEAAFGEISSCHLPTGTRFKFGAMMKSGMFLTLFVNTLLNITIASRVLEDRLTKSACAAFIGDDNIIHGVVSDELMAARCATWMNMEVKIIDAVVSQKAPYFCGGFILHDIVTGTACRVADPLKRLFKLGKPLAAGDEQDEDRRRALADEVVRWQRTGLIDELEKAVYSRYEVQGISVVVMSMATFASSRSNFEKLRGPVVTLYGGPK
* marks the source's active call; other numbers are inactive results; i = inactive; ? = inconclusive; [ ] = remark or other dose. On the % scale 0 is the no-effect control and ±100 the full control effect; potency means the concentration at half of the fitted maximal effect. A portion of the library. The share of hits here may be higher or lower than overall.

SMILES | nsP2pro inh
Cn1cc(CN2C[C@H](C(=O)NCc3ccccc3)C[C@H]2c2cccc(C(F)(F)F)c2)cn1 | -3%
Cc1cc2nc3c(=O)[nH]c(=O)nc-3n(C[C@H](O)[C@H](O)[C@H](O)COP(=O)(O)OP(=O)(O)OC[C@H]3O[C@@H](n4cnc5c(N)ncnc54)[C@H](O)[C@@H]3O)c2cc1C | ?
Cc1cccc(C(C)C)c1NC(=O)C1CCCN1S(=O)(=O)c1cccc2nsnc12 (centres undefined) | -22%
CCC(C)(C)C(=O)O[C@H]1C[C@@H](C)C=C2C=C[C@H](C)[C@H](CC[C@@H]3C[C@@H](O)CC(=O)O3)[C@H]21 | ?
Cc1nn(CCC#N)c(C)c1[C@@H]1C=C[C@@H](NS(=O)(=O)c2ccccc2)C1 | ?
CS(=O)(=O)Nc1ccc(OCC(=O)N2CCN(c3ccc(F)cc3)CC2)nc1 | -15%
O=c1cc(-c2ccccc2)oc2ccc(O)cc12 | 2%
C=C/C=C/C[C@@H](C)[C@@H](O)[C@H]1C(=O)N[C@@H](CC)C(=O)N(C)CC(=O)N(C)[C@@H](CC(C)C)C(=O)N[C@@H](C(C)C)C(=O)N(C)[C@@H](CC(C)C)C(=O)N[C@@H](C)C(=O)N[C@H](C)C(=O)N(C)[C@@H](CC(C)C)C(=O)N(C)[C@@H](CC(C)C)C(=O)N(C)[C@@H](C(C)C)C(=O)N1C | 0%
Cc1c(CN2CC[C@H]3CC[C@@H](C2)N3)c(=O)n(-c2ccccc2)n1C | 4%
COc1ccc(Cl)cc1NC(=O)c1ncn(-c2ccccc2)n1 | -3%
COc1ccc(Br)c(C(=O)Nc2cc3c(cc2N2CCCCC2)n(C)c(=O)c(=O)n3C)c1 | -15%
C[C@H]1COC2=C1C(=O)C(=O)c1c2ccc2c1CCCC2(C)C | ?
COc1ccc(C2=Nn3c(nnc3-c3cc(OC)ccc3OC)SC2)cc1 | i
CCn1c(CNC(=O)C23CC4CC(CC(C4)C2)C3)nnc1SCC(=O)Nc1ccccc1 | -18%
O=C([C@@H]1COCC(=O)N1Cc1ccccc1)N1CCN(Cc2ccc3c(c2)OCO3)CC1 | 4%
O=C(O)CCC(=O)N1CCC2(CC1)C(=O)NCN2C(=O)Cc1c[nH]c2ccccc12 | ?
COC(=O)N(C)Cc1cccc(C(F)(F)F)c1 | -5%[39.2 µM]
O=c1ccc2ccc(O)cc2o1 | ?
CN1C(=O)Cc2cc(S(=O)(=O)N3CCN(c4ccccc4F)CC3)ccc21 | -23%
O=C(Nc1cccc(C(=O)OCc2cc(=O)n3ccsc3n2)c1)c1ccc(F)cc1 | -9%
C=C[C@H]1C(O[C@@H]2O[C@H](CO)[C@@H](O)[C@H](O)[C@H]2O)OC=C2C(=O)N3CCc4c([nH]c5ccccc45)C3CC21 (some centres undefined) | -20%[10 µM]
O=C(CN(c1cc(C(F)(F)F)ccc1Cl)S(=O)(=O)c1ccccc1)NCCc1ccccc1 | -30%
CCOC(=O)c1c(S(=O)(=O)N2CCCC(C(=O)Nc3cccc(CC)c3)C2)c(C)n(CC)c1C (centres undefined) | -19%
COc1cccc(CNC(=O)c2cc3n(n2)CCCN(Cc2ccc(C)cc2)C3=O)c1OC | -17%
CCOc1ccc(-c2cccc(NS(=O)(=O)c3ccc(C)s3)c2)nn1 | -9%
CC1=CC(=O)C2C(C)(C)CCC[C@]2(C)[C@H]1CO (some centres undefined) | -13%
CN(C)C(=O)CNC(=O)c1cccc(S(=O)(=O)NCCn2ccnc2)c1 | 1%
CCc1cc(C(N)=S)ccn1 | 14%
CN(C(=O)c1cccs1)c1cccnc1 | -12%
Cc1ccc2onc(CNC(=O)N3CCN(c4cccc(C)c4C)CC3)c2c1 | -11%
Cc1ccc(C(c2sc3nc(-c4ccco4)nn3c2O)N2CCOCC2)cc1 (centres undefined) | ?
CC(=O)c1ccc(N2C(=O)Nc3ccccc3S2(=O)=O)cc1 | -15%
CC1C(=O)OCC2=CCN3CCC(OC(=O)C(C)(O)C1(C)O)C23 (centres undefined) | ?
CC1(C)CCCC2(C)C1C(O)C=C(CO)C2(O)C(=O)O (centres undefined) | ?
Cc1cc(C)cc(-n2c(SCC(N)=O)nc3c([nH]c4ccccc43)c2=O)c1 | -11%
COc1cccc(C2C(=O)N(C3CCCCC3)CC(=O)N2Cc2ccc(Cl)cc2)c1 (centres undefined) | -15%
CC1=C(C(=O)OC(C)C)C(c2cccc([N+](=O)[O-])c2)C(C(=O)OC2CN(C(c3ccccc3)c3ccccc3)C2)=C(N)N1 (centres undefined) | 14%
CC(F)(F)CN1CCOc2c(nn(-c3ccccc3Cl)c2-c2ccc(Cl)cc2)C1=O | -22%
COc1ccc(CCC(=O)NCCc2csc(-c3ccc(Cl)cc3)n2)cc1 | -12%
O=C1CCCC2=C1C(c1[nH]ncc1Cl)N=C(Nc1nc3cc(F)ccc3o1)N2 (centres undefined) | i
COc1ccnc(NC(=S)N2CCN(c3ccc(Cl)c(Cl)c3)CC2)c1 | i
COc1ccc(NCc2cc3cc4c(cc3n(CC(=O)Nc3ccc(C)cc3C)c2=O)OCO4)cc1 | ?
Cc1cc2c(cc1S(N)(=O)=O)S(=O)(=O)CCC2 | 16%
O=C(NC[C@H]1OC[C@@H](NCc2cccnc2)[C@@H]1O)N1CCOCC1 | 1%[39.2 µM]
COC(=O)Cc1cc2c(c([N+](=O)[O-])c1)N(C(=O)CC[C@H](N)C(=O)O)CC2 | -13%

Look-ups from above.
CC1=C(C(=O)OC(C)C)C(c2cccc([N+](=O)[O-])c2)C(C(=O)OC2CN(C(c3ccccc3)c3ccccc3)C2)=C(N)N1 (centres undefined) – nsP2pro inh = 14%
COc1ccc(CCC(=O)NCCc2csc(-c3ccc(Cl)cc3)n2)cc1 – nsP2pro inh = -12%
Cc1cc(C)cc(-n2c(SCC(N)=O)nc3c([nH]c4ccccc43)c2=O)c1 – nsP2pro inh = -11%
COC(=O)Cc1cc2c(c([N+](=O)[O-])c1)N(C(=O)CC[C@H](N)C(=O)O)CC2 – nsP2pro inh = -13%

Other records follow.
SMILES | nsP2pro inh
CC(C)C12CN3CC(C(C)C)(CN(C1)C3c1ccccn1)C2=O (centres undefined) | 10%
CNC(=O)[C@H]1C[C@H](Oc2ccccc2)CN1S(=O)(=O)c1c(C)noc1C | 3%
CC(Cc1cc2c(c(C(N)=O)c1)N(CCCO)CC2)NCCOc1ccccc1OCC(F)(F)F (centres undefined) | -4%
CCN(CC)C(=O)Cn1c(=O)n(-c2ccc(Cl)cc2)c(=O)c2c3c(sc21)CCCCC3 | -18%
COCCn1c(SCC(=O)c2c(C)[nH]c3ccccc23)nc2cc(C(=O)NC(C)C)ccc2c1=O | -14%
CCC(Cc1ccccc1)NC(=O)c1ccc2nc(N3CCC(C)CC3)sc2c1 (centres undefined) | -21%
Cc1nc(C(C)C)ncc1C(=O)N1CCC2(CCCN(C)C2=O)C1 (centres undefined) | i
CCc1cccc(C)c1Nc1c(-c2ccc(N3CCOCC3)cc2)nc2ncccn12 | -15%
COCC(=O)NC1CCC12CCN(Cc1ccc(C)o1)CC2 (centres undefined) | ?
Cc1cccc(NC(=O)C2CCCN(S(=O)(=O)c3c(C)[nH]c(=O)[nH]c3=O)C2)c1C (centres undefined) | -17%
CC(C)=CCc1ccc(Oc2c(O)cc(C)cc2CO)c(C(=O)O)c1O | -10%
COc1cc2[nH]c(=O)n(Cc3ccc(C(=O)NCc4ccc(C)cc4)cc3)c(=O)c2cc1OC | -12%
Cc1cccc(Cn2c(SCc3ccc(C(=O)NC4CCCC4)cc3)nc3cccnc32)c1 | 25%
Cn1c(=O)cc(OCC(=O)N2CCN(c3ccccc3F)CC2)c2ccccc21 | -20%
Cc1ccc(NS(=O)(=O)c2ccc3c(c2)oc(=O)n3C)cc1C | 0%

Retrieved by structure from above:
SMILES | nsP2pro inh
Cc1ccc(NS(=O)(=O)c2ccc3c(c2)oc(=O)n3C)cc1C | 0%
CC(C)=CCc1ccc(Oc2c(O)cc(C)cc2CO)c(C(=O)O)c1O | -10%
Cn1c(=O)cc(OCC(=O)N2CCN(c3ccccc3F)CC2)c2ccccc21 | -20%
CCC(Cc1ccccc1)NC(=O)c1ccc2nc(N3CCC(C)CC3)sc2c1 (centres undefined) | -21%
CNC(=O)[C@H]1C[C@H](Oc2ccccc2)CN1S(=O)(=O)c1c(C)noc1C | 3%

Continuation.
SMILES | nsP2pro inh
CCN(CC)c1cc(C)c2cc(NC(=O)/C=C/c3ccccc3Cl)ccc2n1 | -12%
COc1ccc(CN2C(=O)CO[C@H]3CN(C(=O)C4CC4)C[C@H]32)cc1 | -9%[39.2 µM]
CCOC(=O)c1c(S(=O)(=O)N2CCC(C(=O)Nc3ccc(C)c(Cl)c3)CC2)c(C)n(C)c1C | -7%
CCOC(=O)c1c(C)n(-c2ccccc2)c2ccc(OC(=O)c3ccccc3NC(=O)C(C)C)cc12 | -16%
O=C(Nc1sc2c(c1-c1nc3ccccc3s1)CCNC2)C(F)F | ?
COc1cccc(CN2CC(Oc3ccccc3C(=O)NC3CC3)C2)c1 | i
CC1=NS(=O)(=O)N(C)C=C1C(=O)OCc1noc(-c2ccco2)n1 | i
COc1ccc(-c2csc3ncnc(Sc4nnnn4C)c23)cc1 | i
Cc1c(P(=S)(c2ccccc2)c2ccccc2)c2ccccc2n1CCc1ccccc1 | -2%
O=C(CSCc1cnn(-c2ccccc2)c1-n1cccc1)Nc1ccc(F)cc1F | -9%
CC1OC(OC2C(O)C(C(=O)O)OC(OC3CCC4(C)C(CCC5(C)C4C=CC4=C6CC(C)(C)CC(O)C6(C)CCC45C)C3(C)C)C2OC2OCC(O)C(O)C2O)C(O)C(O)C1O (centres undefined) | 73%[activator][5.1 µM]
CCOCCOc1cccc(C(=O)N2C[C@@H](N(C)C)[C@H](C(C)C)C2)c1 | i
C=CC1(C)C=C2CC[C@H]3[C@@](C)(C(=O)O)CCC[C@]3(C)C2CC1 (some centres undefined) | ?
COCCCN1CC2(CCN(C(=O)c3cc(C(C)C)oc3C)CC2)CC1=O | -4%
COc1cc(/C=C/C(=O)CC(=O)/C=C/c2ccc(O)c(OC)c2)ccc1O | -22%

2 entries from above, field by field:
CCOC(=O)c1c(C)n(-c2ccccc2)c2ccc(OC(=O)c3ccccc3NC(=O)C(C)C)cc12
- nsP2pro inh = -16%
CCOC(=O)c1c(S(=O)(=O)N2CCC(C(=O)Nc3ccc(C)c(Cl)c3)CC2)c(C)n(C)c1C
- nsP2pro inh = -7%

(list continues)
SMILES | nsP2pro inh
COc1ccc(-c2nc(CSCC(=O)NCCc3ccc(OC)c(OC)c3)c(C)o2)cc1 | -6%
O=C(c1ccccc1Br)N(Cc1ccco1)C1CCS(=O)(=O)C1 (centres undefined) | -18%
O=C(NCc1ccc(Cl)s1)C1CCCN(C2CCN(C(=O)C3CC3)CC2)C1 (centres undefined) | -3%
O=C(Nc1c(-c2ccc(F)cc2)nc2ccccn12)c1ccccc1F | -14%
CN1CCN(C(=O)c2ccc(-c3cnc4c(O)ccc(C(=O)O)c4c3)cc2)CC1 | i
O=C(Oc1ccc([N+](=O)[O-])cc1)N1CCC(C(O)(c2ccc3c(c2)OCO3)c2ccc3c(c2)OCO3)CC1 | ?
CC(C)c1ccc2c(c1)CCC1[C@](C)(C(=O)O)CCC[C@]21C (some centres undefined) | 14%
C[C@]12CC[C@H](O)CC1=CC[C@@H]1C2CC[C@]2(C)[C@@H](C3=CC(=O)OC3)CC[C@]12O (some centres undefined) | 0%
CN(CCc1noc(C2CN(C(=O)CN3CCCCCC3)C2)n1)S(C)(=O)=O | i
O=C(Cc1ccc(Cl)c(Cl)c1)Nc1ccc([S+](=O)([O-])Nc2nnc(-c3ccccn3)s2)cc1 | i
COc1cccc(NCCC2(c3ccccc3)CC(C)(C)OC(C)(C)C2)c1 | -8%
CC(=O)N1CC2(CCN(CCCn3ccnc3C)CC2)CC1C(=O)O (centres undefined) | -3%
COCC(=O)N1CCN(c2nc3ncccc3o2)CC1 | -4%[39.2 µM]
CC(O)CN1CC2(CCC1=O)CCN(CCCn1ccnc1)CC2 (centres undefined) | 0%
CC(C)CCN1CCNC(=O)C1CC(=O)N(Cc1cnn(C)c1)C1CC1 (centres undefined) | -13%

The last 3 records of the section above open the next one.
SMILES | nsP2pro inh
COCC(=O)N1CCN(c2nc3ncccc3o2)CC1 | -4%[39.2 µM]
CC(O)CN1CC2(CCC1=O)CCN(CCCn1ccnc1)CC2 (centres undefined) | 0%
CC(C)CCN1CCNC(=O)C1CC(=O)N(Cc1cnn(C)c1)C1CC1 (centres undefined) | -13%
Cc1nn(CC(=O)N2CCC(C)CC2)c(=O)c2cc3occc3n12 | -17%
COc1ccc(N(Cc2nnc3n2CCCCC3)C(=O)Nc2ccc(Cl)cc2)cc1Cl | -11%
Cc1ccccc1Cn1cc(-c2ccncc2)cc1C(=O)N1CCCC1 | i
CC(C)CCN1CC[C@@H]2OCC(=O)N(Cc3ccccc3)[C@H]2CC1 | -9%[39.2 µM]
O=C(NCc1ccc(Cl)cc1)c1cc2cccnn2n1 | -1%[39.2 µM]
Fc1ccccc1Nc1ccnc(N2CC3CCC(C2)N3CC(F)(F)F)n1 | -1%
CCOC(=O)c1c(NC(=O)c2cc3nc(-c4ccc(OC)cc4)cc(C(F)(F)F)n3n2)sc2c1CCC(C)C2 (centres undefined) | -17%
COc1ccc(-c2nc3scc(CCNS(=O)(=O)c4ccc(F)c(C(F)(F)F)c4)n3n2)cc1OC | 0%
NC(N)=NS(=O)(=O)c1ccc(N)cc1 | 5%
Cc1cccc(-c2nc3cc(C(=O)NCc4ccc(F)cc4)ccc3o2)n1 | -8%[39.2 µM]
COc1ccc(N2C(=O)[C@@H]3Cc4nc[nH]c4CN3C2=O)cc1 | -4%[39.2 µM]
Cc1ccsc1CN(Cc1ccco1)C(=O)c1ccc(Cl)cc1 | -27%
Cc1ccc(CNC(=O)CC(C)S(=O)(=O)c2cc3c(cc2C)NC(=O)CO3)cc1 (centres undefined) | -20%
COc1ccc(C(=O)O[C@H]2C=COC=C3C=C4C(=O)N(C)C(=S)C(=O)N4[C@@H]32)cc1Oc1cc(C=O)ccc1O | ?
COC(=O)C1C(c2ccc(O)cc2)C(C(=O)OC)C1c1ccc(O)cc1 (centres undefined) | 16%
C=C1CC[C@@H]2C(C)(C)CCC[C@@]2(C)[C@@H]1CC/C(=C/C(=O)OC)COC(C)=O | ?
